ID4 SMM = binders of human ID4 protein. small molecule microarray, Flag-ID4 binding, fluorescence F/B. P47928. calls only. hit rate 1.2% among 31,000;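 active = spot signal over background at p below 0.07 in all four prints; compounds were printed on slides so no solution concentration is given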;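 also: a binder raises fluorescence above local background on the spot; about 2 pmol printed per array spot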
Target sequence (P47928 whole entry, looked up): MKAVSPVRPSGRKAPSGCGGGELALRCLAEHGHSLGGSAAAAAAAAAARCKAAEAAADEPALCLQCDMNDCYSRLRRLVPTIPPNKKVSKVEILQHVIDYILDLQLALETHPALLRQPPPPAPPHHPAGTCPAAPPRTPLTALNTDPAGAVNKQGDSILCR
Calls only; i = inactive; + = active, no number. A portion of the library; rates above refer to the full screens.

The opening six compounds, to show the layout:
Structure	ID4 SMM
COc1ccc(OC)c(NC(=O)CCn2cnc3ccccc3c2=O)c1	i
CN(C)CCCN1C(=O)C(=O)C(C(=O)c2cccs2)C1c1ccco1 (stereo not drawn)	i
C[C@H](CO)N1C[C@H](C)[C@@H](CN(C)C(=O)c2ccccc2F)Oc2ncc(C#Cc3cccc(F)c3)cc2C1=O	i
O=C1c2ccccc2C2CC(c3cc(Cl)ccc3Cl)=NN12 (stereo not drawn)	i
Cc1ccc(N(C(C)C(=O)Nc2c(C)cc(C)cc2C)S(C)(=O)=O)cc1 (stereo not drawn)	i
C[C@@H]1CN([C@@H](C)CO)C(=O)c2cc(-c3cccc(C(=O)N(C)C)c3)cnc2O[C@@H]1CN(C)C	i

The listing (from the top)
Structure	ID4 SMM
COc1ccc(OC)c(NC(=O)CCn2cnc3ccccc3c2=O)c1	i
CN(C)CCCN1C(=O)C(=O)C(C(=O)c2cccs2)C1c1ccco1 (stereo not drawn)	i
C[C@H](CO)N1C[C@H](C)[C@@H](CN(C)C(=O)c2ccccc2F)Oc2ncc(C#Cc3cccc(F)c3)cc2C1=O	i
O=C1c2ccccc2C2CC(c3cc(Cl)ccc3Cl)=NN12 (stereo not drawn)	i
Cc1ccc(N(C(C)C(=O)Nc2c(C)cc(C)cc2C)S(C)(=O)=O)cc1 (stereo not drawn)	i
C[C@@H]1CN([C@@H](C)CO)C(=O)c2cc(-c3cccc(C(=O)N(C)C)c3)cnc2O[C@@H]1CN(C)C	i
C[C@@H]1CN([C@H](C)CO)C(=O)c2cc(C3=CCCC3)cnc2O[C@H]1CN(C)C(=O)Cc1ccncc1	+
COc1cccc(-c2ccc3c(c2)O[C@H](CN(C)Cc2ccncc2)[C@H](C)CN([C@H](C)CO)S3(=O)=O)c1	i
OCc1nc2ccccc2n1CC(O)Cn1ccc2ccccc21 (stereo not drawn)	i
Cc1cc(C)c(C#N)c(SCC(=O)Nc2sc3c(c2C#N)CCC3)n1	i
Cc1ccc(S(=O)(=O)C2CS(=O)(=O)c3ccccc32)cc1 (stereo not drawn)	i
CCCNC(=O)C[C@H]1C[C@H]2c3cc(NC(=O)C4CCOCC4)ccc3O[C@H]2[C@H](CO)O1	i
COC(=O)c1c(C)[nH]c(C)c1/C=C(\C#N)S(=O)(=O)c1ccc(Cl)cc1	i
CCN1CCC[C@H]1CNC(=O)c1c(OC)ccc(Br)c1OC	i
C[C@H](CO)N1C[C@H](C)[C@H](CN(C)S(=O)(=O)c2cn(C)cn2)Oc2ncc(C#CCN(C)C)cc2C1=O	i
Cc1ccc2nc(-c3ccc(NC(=O)CSc4nnc(C)s4)cc3)sc2c1	i
C[C@@H]1CN([C@H](C)CO)C(=O)c2c(c3ccccc3n2C)-c2ccccc2CO[C@H]1CN(C)C	i
CC(C)Cn1c(=O)n(C)c(=O)c2[nH]cnc21	i
NC(=O)C1CCN(CCC(=O)Nc2ccc(F)cc2)CC1	i
C[C@H](CO)N1C[C@H](C)[C@H](CN(C)Cc2ccccn2)Oc2ncc(C3=CCCCC3)cc2C1=O	i
CCC(C)c1ccccc1OCC(=O)Nc1ccccc1C#N (stereo not drawn)	i
COc1ccc(NC(=O)CN2CCN(S(=O)(=O)c3ccc4ccccc4c3)CC2)cc1	i
CCN(CC)CC(=O)Nc1c(C)cccc1C	i
CC(=O)Nc1ccc(C(=O)CSc2nncn2C)cc1	i
CCn1c(SCC(=O)Nc2cccc(Br)c2)nnc1-c1ccncc1	i
CC1(C)O[C@@H]2C[C@H]3[C@@H]4C[C@H](F)C5=CC(=O)CC[C@]5(C)[C@H]4[C@@H](O)C[C@]3(C)[C@]2(C(=O)CO)O1	i
CC(C)C#Cc1cnc2c(c1)C(=O)N([C@@H](C)CO)C[C@H](C)[C@@H](CN(C)Cc1ccc3c(c1)OCO3)O2	i
COc1ccccc1-c1c(C(F)(F)F)oc2cc(OCC(=O)OC(C)C)ccc2c1=O	i
CC[C@H]1CN2CCc3cc(OC)c(OC)cc3[C@@H]2C[C@@H]1C[C@H]1NCCc2cc(OC)c(OC)cc21	i
COc1cc(NC(=S)NCCc2c[nH]c3ccccc23)c(OC)cc1Cl	i
COc1ccccc1NC(=O)C(C)N1c2cccc3cccc(c23)S1(=O)=O (stereo not drawn)	i
COc1ccc(CN(Cc2cccn2C)C(=O)c2cc3cc(OC)ccc3[nH]2)cc1	i
COc1cccc(-c2cnc3c(c2)C(=O)N([C@H](C)CO)C[C@@H](C)[C@H](CN(C)CC2CCCC2)O3)c1	i
CCCN(C)C[C@H]1Oc2ncc(-c3cccc(C(=O)N(C)C)c3)cc2C(=O)N([C@@H](C)CO)C[C@H]1C	i
c1ccc(-c2nnc(SCC3CCOCO3)n2-c2ccccc2)cc1 (stereo not drawn)	i
CCCN(C)C[C@@H]1Oc2ncc(C#CC3CC3)cc2C(=O)N([C@@H](C)CO)C[C@@H]1C	i
O=C(CCN1C(=O)c2ccccc2C1=O)Nc1ccc(-c2nc3ccccc3s2)cc1	i
Cc1cc(C)c(C)c(Oc2coc3cc(OCC(=O)Nc4ccccc4F)ccc3c2=O)c1	i
COc1cc(-c2ccc(=O)[nH]n2)ccc1OC(F)F	i
CN(C)/C=C1/Nc2ccccc2C1=O	i
CCCNC(=O)N(C)C[C@H]1Oc2ncc(C#C[C@H](C)O)cc2C(=O)N([C@H](C)CO)C[C@@H]1C	i
CCCc1cc(=O)[nH]c(SCC(=O)Nc2ccc(C)cc2C)n1	i
Cc1ccccc1-n1c(C)cc(/C=C2\NC(=O)NC2=O)c1C	i
Cc1cc(C)nc(SCC(=O)c2ccc(Oc3ccccc3)cc2)n1	i
CS(=O)(=O)N(CC(=O)Nc1cc(C(F)(F)F)ccc1Cl)c1cccc([N+](=O)[O-])c1	i
O=C(O)C(Cc1ccccc1)N1C(=O)C2C3C=CC(C3)C2C1=O (stereo not drawn)	i
O=c1c2ccccc2nc2c3ccccc3c(NCc3ccccn3)nn12	i
CCOc1c(S(=O)(=O)NCc2ccco2)ccc(Cl)c1Cl	i
CCc1cc2c(=O)n(-c3ccccc3)c(SCC(=O)Nc3ccc([N+](=O)[O-])cc3)nc2s1	i
CCOC(=O)C(C)Sc1ncnc2c1sc1nc(N3CCOCC3)c3c(c12)CC(C)(C)OC3 (stereo not drawn)	i

Continued:
Structure	ID4 SMM
COCC#Cc1ccc2c(c1)O[C@H](CN(C)C)[C@H](C)CN([C@@H](C)CO)S2(=O)=O	i
COc1cc(NC(=O)COc2ccc(Cl)cc2Cl)c2ncccc2c1	i
C[C@@H]1CN([C@H](C)CO)C(=O)c2cc(C#CC3CC3)cnc2O[C@H]1CN(C)Cc1ccccn1	i
COc1ccc(-c2ccc3c(c2)O[C@H](CN(C)C)[C@@H](C)CN([C@H](C)CO)S3(=O)=O)cc1	i
COc1cc(NS(=O)(=O)c2ccc(NC(=O)c3ccc(Cl)cc3Cl)cc2)ncn1	i
O=C(CSc1ncnc2scc(-c3ccc(Cl)cc3)c12)Nc1nsc(-c2ccccc2)n1	i
COc1ccc(Cl)cc1NC(=O)COc1ccc([N+](=O)[O-])cc1	i
CCCC#Cc1ccc2c(c1)O[C@H](CN(C)S(=O)(=O)c1cccc(F)c1)[C@H](C)CN([C@H](C)CO)S2(=O)=O	i
OCCn1c(SCCOc2ccccc2)nc2ccccc21	i
C[C@H]1CN([C@@H](C)CO)C(=O)c2cc(-c3cccnc3)cnc2O[C@@H]1CN(C)C	+
CC(=O)O[C@@H]1[C@@H](OC(C)=O)[C@H](C)O[C@@H](O[C@H]2[C@@H]3C=CO[C@@H](O[C@@H]4O[C@H](CO)[C@@H](O)[C@H](O)[C@H]4O)[C@@H]3[C@@]3(CO)O[C@@H]23)[C@@H]1OC(=O)/C=C/c1ccccc1	i
Cc1cc2c(c(=O)n1CCN1CCOCC1)C(c1cccc(F)c1)C(C#N)=C(N)O2 (stereo not drawn)	i
CNC[C@H]1Oc2ncc(C3=CCCC3)cc2C(=O)N([C@@H](C)CO)C[C@H]1C	i
N#Cc1cnc2c(-c3ccccc3)c(COc3ccccc3)nn2c1N	i
O=C(C[C@H]1C=C[C@H](NC(=O)Nc2cc(F)ccc2F)[C@@H](CO)O1)Nc1ccc(-c2ccccc2)cc1	i
O=C(C[C@@H]1C[C@H]2c3cc(NC(=O)C4CCC4)ccc3O[C@H]2[C@H](CO)O1)NCc1cccc(F)c1	i
Cc1ccc(N(CC(=O)Nc2ccccc2-c2ccccc2)S(C)(=O)=O)cc1C	i
O=C(C[C@H]1C=C[C@H](NC(=O)CC2CC2)[C@@H](CO)O1)NCc1ccc(Cl)cc1	i
CCCN(C)C[C@@H]1Oc2ncc(C#CCC(C)C)cc2C(=O)N([C@H](C)CO)C[C@H]1C	i
CCCN(C)C[C@H]1Oc2ncc(-c3ccccc3F)cc2C(=O)N([C@H](C)CO)C[C@H]1C	i
CN(C)S(=O)(=O)N(CC(=O)O)c1ccccc1	i
CCc1c(C)nc(SCC(=O)Nc2ccc(OC)cc2)[nH]c1=O	i
COCC(=O)N[C@H]1CC[C@H](CC(=O)N2CCCCC2)O[C@@H]1CO	i
Cc1ccc(-c2nnc(N3CCN(C(=O)CSc4ncn[nH]4)CC3)c3ccccc23)cc1	i
COCC#Cc1cnc2c(c1)C(=O)N([C@@H](C)CO)C[C@@H](C)[C@@H](CN(C)Cc1ccc(F)cc1)O2	i
c1ccc(-n2c(SCc3nc4ccccc4s3)nnc2-c2ccncc2)cc1	i
N#Cc1cc2c(nc1SCC(=O)Nc1cc(C(F)(F)F)ccc1Cl)CCCCC2	i
C[C@H]1CN([C@@H](C)CO)S(=O)(=O)c2ccc(C#CC3CCCC3)cc2O[C@H]1CN(C)C(=O)Nc1cc(F)ccc1F	i
O=C(O)C1C2C=CC(O2)C1C(=O)Nc1ccc(Oc2ccc(Cl)cc2)cc1 (stereo not drawn)	i
COc1ccc(S(=O)(=O)N[C@@H]2C=C[C@H](CC(=O)N3CCc4ccccc4C3)O[C@H]2CO)cc1	i
CC(=O)N(C)C[C@@H]1Oc2ncc(-c3cccc(F)c3)cc2C(=O)N([C@@H](C)CO)C[C@H]1C	i
CCCC#Cc1cnc2c(c1)C(=O)N([C@H](C)CO)C[C@@H](C)[C@@H](CN(C)Cc1ccncc1)O2	i
COc1ccc(C)cc1S(=O)(=O)NCc1ccccn1	i
O=C(NCCCn1ccnc1)c1cc(-c2ccc(Br)cc2)nc2ccccc12	i
COc1ccc(OC)c(S(=O)(=O)N(C)CC(=O)N2CCN(c3ccc(F)cc3)CC2)c1	i
COC(=O)c1ccc(Cl)c(NC(=O)CSc2ncn[nH]2)c1	i
CC1CCc2c(sc3ncnc(SCC(=O)NC4CCCCC4)c23)C1 (stereo not drawn)	i
O=C(OCCSc1cnc2ccccc2n1)c1cc(Cl)cc(Cl)c1	i
Cn1c(SCC(=O)Nc2ccccc2C(=O)Nc2ccccc2)nc2ccccc2c1=O	i
COc1ccc(C2C(C(=O)Nc3ccccc3)=C(C)Nc3ncnn32)cc1O (stereo not drawn)	i
CC(=O)N(C)C[C@H]1Oc2ncc(C#Cc3ccc(F)cc3)cc2C(=O)N([C@@H](C)CO)C[C@H]1C	i
C=CCN1CCc2c(cc(O)c(O)c2Br)[C@@H](c2ccccc2)C1	i
C[C@@H]1CN([C@@H](C)CO)C(=O)CCCn2cc(nn2)CO[C@H]1CN(C)CC1CCCCC1	i
CCCN(C)C[C@H]1Oc2cc(C#CCC(C)C)ccc2S(=O)(=O)N([C@H](C)CO)C[C@H]1C	i
COc1cccc(-c2ccc3c(c2)O[C@H](CN(C)CC2CC2)[C@H](C)CN([C@@H](C)CO)S3(=O)=O)c1	i
CC(C)N1CN=C(Nc2nc3ccccc3o2)NC1	i
CCc1nc(SCC(=O)Nc2ccc([N+](=O)[O-])cc2)n[nH]1	i
CCCNC(=O)N(C)C[C@@H]1Oc2cc(C3=CCCC3)ccc2S(=O)(=O)N([C@@H](C)CO)C[C@H]1C	i
CCOC(=O)c1c(NC(=S)Nc2ccsc2C(=O)OC)sc(C)c1-c1ccccc1	i
C[C@@H]1CN([C@@H](C)CO)C(=O)c2cc(C#Cc3cccc(F)c3)cnc2O[C@H]1CN(C)C(=O)C1CCC1	i

Fetched by compound from the list above, five records:
Structure	ID4 SMM
Cc1cc(C)nc(SCC(=O)c2ccc(Oc3ccccc3)cc2)n1	i
Cc1ccc(-c2nnc(N3CCN(C(=O)CSc4ncn[nH]4)CC3)c3ccccc23)cc1	i
CS(=O)(=O)N(CC(=O)Nc1cc(C(F)(F)F)ccc1Cl)c1cccc([N+](=O)[O-])c1	i
CC1CCc2c(sc3ncnc(SCC(=O)NC4CCCCC4)c23)C1 (stereo not drawn)	i
OCc1nc2ccccc2n1CC(O)Cn1ccc2ccccc21 (stereo not drawn)	i

Going on with the list:
Structure	ID4 SMM
Cc1cccc(CN(C)C[C@@H]2Oc3ncc(-c4ccc(F)cc4)cc3C(=O)N([C@H](C)CO)C[C@@H]2C)c1	i
CCN(CC(=O)Nc1cccc([N+](=O)[O-])c1C)S(=O)(=O)c1ccc(Br)cc1	i
Cc1cccc(CN(C)C[C@H]2OCc3cnnn3CCCC(=O)N([C@H](C)CO)C[C@@H]2C)c1	i
CCN(CC)c1ncn(Cc2c(Cl)cccc2Cl)c2ncnc1-2	i
C[C@@H]1CN([C@@H](C)CO)C(=O)c2cc(Br)cnc2O[C@H]1CN(C)C(=O)c1ccc(F)cc1	i
COc1cc(-c2nc3ccccc3s2)cc(Br)c1OCC(N)=O	i
C[C@H](CO)N1C[C@H](C)[C@H](CN(C)C(=O)C2CC2)Oc2ncc(Br)cc2C1=O	i
COCc1nc2ccccc2n1CCOc1ccc(Cl)cc1	i
O=C(O)CCCC(=O)Nc1ccc(N2CCOCC2)c(C(=O)O)c1	i
COc1cc(OC)cc(-c2nnc(SCC(=O)Nc3sc4c(c3C#N)CCC(C(C)(C)C)C4)o2)c1 (stereo not drawn)	i

Screening results as filed in PubChem.
